# Assay outcomes as filed in PubChem.
# CSC inhib – cancer stem cell viability inhibitors, primary screen, luminescence; cancer stem cell-like cells viability; inhibition, % at 7.5 µM; 300,000 tested, 1.1% active; AID 2717, 2010;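 active means mean at 75% or more and at least half the replicates too; inconclusive means mean and replicates disagree; tested in HMLE shEcad cells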;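 further: 0% = median of negative and 100% = median of positive control wells; the first replicate is given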
# Rce1 inhib – yeast Rce1p protease inhibitors, primary screen, biochemical, fluorescence, cell-free homogeneous. yeast membranes, quenched prenylated peptide cleavage fluorescence. calls only. 290,000 tested, 0.27% active. AID 2563, 2010;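 active means fall in fluorescence gain of 50% or more versus controls, with final raw signal at or below 3038400; inconclusive means same 50% fall but final raw signal above 3038400; inactive means fall in fluorescence gain under 50%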;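 further: plate controls were neutral control wells for no effect and wells lacking membranes for full effect; tested at 10 µM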
# Yeast UUG start – modulators of yeast start codon fidelity, primary screen, whole organism, S. cerevisiae, single point, plate reader; 350,000 tested, 0.13% active; AID 602363, 2012; S. cerevisiae UUG-firefly luciferase reporter, luminescence/redox ratio; activity score, % at 18.7 µM;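 active means replicate mean at a twofold rise or more, about +100% in these data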;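 further: firefly luciferase made from a UUG start codon reports start codon fidelity; reporter light over untreated wells divided by growth signal over untreated wells; some hits fall short of that in this replicate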
# HIV Env fusion – inhibitors of HIV-1 Env-driven cell-cell fusion, primary screen, HeLa-JRFL effector, CEM21 target cells, luciferase | 360,000 tested, 1.1% active | AID 651610, 2012 | inhibition, % at 12.3 µM;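 active means mean replicate inhibition score of at least 50 and every replicate individually at or above 50; inconclusive means only one of the two criteria met; inactive means mean below 50 and not all replicates reaching 50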;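 further: 0% = plate neutral controls and 100% = maraviroc near 300 nM; one replicate is shown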
# MT1-MMP act inh – blockers of MT1-MMP proenzyme processing, primary screen, HT1080 RFP-PRO-GFP cells, GFP/RFP fluorescence | 360,000 tested, 0.061% active | Matrix metalloproteinase-14 (Homo sapiens), P50281 | GFP/RFP ratio fluorescence, overnight; percent of plate control window, DMSO zero | AID 651647, 2012 | GFP/RFP ratio change, % at 20 µM;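 active means GFP/RFP ratio change of at least 30% with cell ATP level not reduced by more than half and red fluorescence within 50% of control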; further: strong numbers were not always called active
#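 Assay system: HT1080 RFP-PRO-GFP cells | Dosing: 20 µM single dose, 1% DMSO | Incubation: Cells overnight before dosing, compound overnight, 37 °C, 5% CO2 | Evaluation: GFP/RFP fluorescence ratio | Control set: DMSO-only wells and HT1080 RFP-L50D-GFP cell wells as references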
# PABP FP inh – PABP poly(A) RNA binding inhibitors, primary screen, biochemical, fluorescence polarization, uHTS; inhibition, % at 35 µM; 290,000 tested, 1% active; Polyadenylate-binding protein 1 (Homo sapiens), P11940;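 active means 50% or more with normal probe brightness, or confirmed in later tests; inconclusive means above 50% with abnormal brightness, or retests that disagree; inactive means below 50% or failed in later tests; about a fifth of its hits are not listed in these tables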;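 further: calls also rest on retests at 20 µM and on dose response follow-up; controls were probe without protein and protein plus probe with vehicle; some compounds called inactive have numbers as strong as hits; many hits fall short of the cut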
# Target sequence (P11940 whole entry, looked up): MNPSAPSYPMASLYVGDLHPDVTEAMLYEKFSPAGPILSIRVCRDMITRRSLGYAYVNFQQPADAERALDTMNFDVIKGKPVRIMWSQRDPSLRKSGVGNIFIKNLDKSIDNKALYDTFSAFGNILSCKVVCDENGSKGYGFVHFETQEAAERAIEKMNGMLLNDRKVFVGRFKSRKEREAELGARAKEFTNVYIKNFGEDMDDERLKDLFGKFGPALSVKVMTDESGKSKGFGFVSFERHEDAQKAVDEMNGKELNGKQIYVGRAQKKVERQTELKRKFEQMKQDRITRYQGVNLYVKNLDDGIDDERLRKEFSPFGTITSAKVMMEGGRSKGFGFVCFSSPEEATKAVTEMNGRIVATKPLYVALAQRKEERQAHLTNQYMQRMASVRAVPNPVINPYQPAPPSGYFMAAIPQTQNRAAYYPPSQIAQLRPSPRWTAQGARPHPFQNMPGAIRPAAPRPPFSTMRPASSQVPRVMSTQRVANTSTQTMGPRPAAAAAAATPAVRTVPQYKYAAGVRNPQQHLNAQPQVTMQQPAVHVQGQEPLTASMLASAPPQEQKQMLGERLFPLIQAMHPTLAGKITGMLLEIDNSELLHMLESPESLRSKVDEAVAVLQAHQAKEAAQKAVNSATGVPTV
# eIF4H FP inh – human eIF4H binding inhibitors, primary screen, translation initiation inhibitor project, biochemical, uHTS, fluorescence polarization | eIF4H fluorescence polarization binding assay | 290,000 tested, 0.94% active | Eukaryotic translation initiation factor 4H (Homo sapiens), Q15056 | inhibition, % at 35 µM | AID 2012, 2009;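 active means 50% or more with normal probe brightness, or confirmed in later tests; inconclusive means above 50% with abnormal brightness, or retests that disagree; inactive means below 50% or failed in later tests; about a fifth of its hits are not listed in these tables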;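 further: calls also rest on retests at 20 µM and on dose response follow-up; 0% = protein and probe with vehicle and 100% = probe without protein; strong numbers were not always called active; many hits fall short of the cut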
# eIF4H FP inh retest – further read-out of eIF4H FP inh, marked with its call; inhibition, %; compound at 20 µM; confirmation average;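 mean of two retest wells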
# PABP FP inh retest – also measured in PABP FP inh; calls as there; inhibition, %; compound at 20 µM; confirmation repeats;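 mean of two retest wells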
# MT1-MMP act inh RFP – second read-out of MT1-MMP act inh, no call of its own (marks repeat the call); RFP signal change, %; measured here: RFP expression control read;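 0 = vehicle wells; hits needed this value within 50% of zero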
# Starred values were filed as active, the others as inactive; i = inactive; u = inconclusive; x = not tested or not shown.
SMILES,CSC inhib,Rce1 inhib,Yeast UUG start,HIV Env fusion,MT1-MMP act inh,MT1-MMP act inh RFP,PABP FP inh,eIF4H FP inh,others
CN(C)CCCN(C(=O)c1ccco1)c1nc2cc3c(cc2s1)OCO3,-1,i,-19,x,-4,-5,-8,-15,
CC1(C)C(=O)Nc2ccccc2N1C(=O)COC(=O)CCSc1ccccc1,-2,i,-1,-2,4,9,-1,3,
C/C=C/C(=O)Nc1cccc(C2=NOC3(C2)C[C@H](C(N)=O)N(C(=O)c2ccccc2C(=O)c2ccccc2)C3)c1 (some centres undefined),x,i,x,x,x,x,6,-1,
COc1ccc(OCC(=O)Nc2cc(-c3nn(C)c(=O)c4ccccc34)ccc2OC)cc1,14,i,4,86*,5,-12,-5,-12,
Cc1csc(SCC(=O)NC(=O)NCCC(C)C)n1,-5,i,-4,9,-1,0,-1,3,
CSc1ncc(Cl)c(C(=O)NCc2ccc3c(c2)OCO3)n1,-11,i,-20,x,-2,-3,14,2,
CN(C)S(=O)(=O)N(CC(=O)Nc1ccc2ccccc2c1)c1ccccc1,x,i,x,x,-1,-2,8,-6,
CCOC(=O)c1sc2ncnc(NCC(c3cccs3)N(C)C)c2c1C (centres undefined),60,i,-20,-45,-18,-5,19,-1,
CCOC(=O)C1=CCN(S(=O)(=O)c2ccc(C)cc2)C1c1ccc(Cl)c(Cl)c1 (centres undefined),x,x,-15,31,6,-2,x,x,
CCN1C/C(=C/c2ccc(N3CCOCC3)cc2)C(=O)/C(=C/c2ccc(N3CCOCC3)cc2)C1,103*,i,x,x,-138,-2,23,u,
CC(=O)C1C(c2ccc(Cl)cc2)c2c(noc2C)CC1(C)O (centres undefined),-3,i,-14,7,3,5,2,6,
O=C(Nc1ccc2c(c1)OCO2)c1ccc2c(c1)S(=O)(=O)c1ccccc1C2=O,-4,i,-10,-25,-1,1,x,x,
CC(C)(C)NC(=O)C(OC(=O)c1cccs1)c1ccccc1 (centres undefined),-1,i,x,10,3,1,7,4,
CC(C)NC(=O)c1[nH]nc2c1CCc1ccccc1-2,-10,i,-17,x,-3,-3,-3,-4,
COc1ccc2cc3cc(C(=O)N4CCN(c5ccccc5)CC4)oc3nc2c1,-7,i,-13,-38,-1,-5,4,3,
Cc1ccccc1NC(=S)N=Nc1c(O)n(C)c2ccc(S(=O)(=O)N3CCOCC3)cc12,54,i,-17,x,7,-1,-2,5,
O=C(NCCN1CCN(C(=O)c2cccc(Br)c2)CC1)C(=O)NCc1ccccc1,-10,i,-7,8,3,-3,-15,4,
c1ccc(CSc2ncnc3c2ncn3C2CCCCO2)cc1 (centres undefined),x,x,-19,-24,5,-1,x,x,
O=C(Nc1ccc2[nH]ccc2c1)c1ccccc1,-7,i,-68,-72,4,3,-6,2,
COc1cccc(CC(=O)Nc2nc(C)cs2)c1,-9,x,-20,-8,-4,0,-19,-6,
O=C(/C=C/c1ccco1)N(Cc1cccc(F)c1)C1CCS(=O)(=O)C1 (centres undefined),-12,i,-1,8,0,0,9,5,
O=C(Cn1c(=O)sc2ccccc21)Nc1ccc(S(=O)(=O)N2CCCC2)cc1,-8,i,-11,4,8,4,-2,-5,
COCCSc1nnc(NC(=O)CCS(=O)(=O)c2ccccc2)s1,21,i,3,2,6,6,-4,3,
Cc1ccc(C2(C)CC(C)(C)N(C(=O)CSc3nnc(C)s3)c3ccccc32)cc1 (centres undefined),9,i,-11,26,-27,-24,-6,0,
Nc1nc(SCC(=O)O)[nH]c(=O)c1NC(=O)c1ccccc1F,19,i,0,18,2,6,2,1,
Cc1ccc(C(NC(=O)C2CCN(CCOc3ccc(Cl)cc3Cl)CC2)c2ccccn2)cc1 (centres undefined),x,x,10,6,2,-2,x,x,
COc1ccccc1C(=O)O/N=C(/C)c1ccc(N2C(=O)C3CCCCC3C2=O)cc1 (centres undefined),-17,i,18,x,1,4,2,-4,
O=S1(=O)N=CN(Cc2cccc(F)c2)c2ccccc21,-11,i,-17,-25,2,0,1,3,
O=S(=O)(c1ccc2nc(SCc3ccc(Cl)cc3)[nH]c2c1)N1CCOCC1,-6,i,-4,29,-1,-7,-4,21,
COc1ccc(NC(=S)NCCc2ccc(F)cc2)c(OC)c1,-13,i,x,3,-1,3,3,0,
Cc1occc1C(=O)NNC(=O)Cc1ccccc1,x,i,-12,x,12,3,10,3,
C#CCOCCOCCOCCNc1nc(N2CCN(C(=O)CCCCCCCCCCNC(=O)[C@H](CCCCN)n3cc(C)nn3)CC2)nc(N2CCN(C(=O)CCCCCCCCCCNC(=O)[C@@H]([C@H](C)O)n3cc(C)nn3)CC2)n1,-7,x,-14,x,3,-1,x,x,
COC(=O)[C@@]1(C)[C@H]2C(=O)N(Cc3ccccc3)C(=O)[C@H]2[C@H]2CN=C(SCC(=O)c3ccccc3)N21,x,x,-14,35,5,8,x,x,
CCOC(=O)c1ccccc1NC(=O)CSc1nnc(C(C)C)n1CC,-12,i,-17,x,2,0,-10,-7,
CCOC(=O)[C@@H]1[C@H]2COc3ccc(Br)cc3[C@H]2N2C(=O)N(c3ccc(Br)cc3)C(=O)[C@]12C,-4,i,-9,-1,-3,-2,1,4,
COc1cc(C)ccc1Oc1nc(-c2ccccc2O)nc2ccccc12,4,i,x,-15,-2,-4,3,-10,
O=C(CN1CCCCC1)N1CCc2ccccc21,-9,i,-9,13,2,3,8,3,
Cc1ccc(CNC(N)=S)cc1,-24,i,-24,-22,0,4,-2,-7,
C/C=C/C(=O)OCC(=O)Nc1nc2ccc(C)cc2s1,-12,i,0,x,2,-1,7,10,
O=C(Cc1cccs1)N/N=C/C(Cl)=C/c1ccccc1,0,i,x,-19,1,1,-5,-3,
O=C(c1cc(S(=O)(=O)N2CCOCC2)ccc1Cl)N1CCOCC1,-5,i,-8,1,0,-1,-11,-2,
COc1ccc(/C=N/Nc2nc(N3CCCC3)nc(N3CCCC3)n2)c(OC)c1OC,-2,i,x,-6,3,2,5,-1,
CN1C(=O)CC(C(=O)O)SC1=Nc1cc(Cl)cc(Cl)c1 (centres undefined),-3,i,-18,-16,4,7,-4,9,
Cc1c(NC(=O)c2cc3c(s2)CCCC3)c(=O)n(-c2ccccc2)n1C,x,i,-5,-1,3,1,2,-2,
CCOC(=O)c1c(C)c(C(=O)Nc2ccc(N(C)C)cc2)c(C)n1CC,48,i,-2,x,-3,-10,0,-2,
CCOC(=O)c1cnc(-n2nc(C)cc2C)nc1NCCc1ccccc1,-16,i,-39,44,4,-9,-18,-7,
Cc1cccn2c(=O)c3cc(C(=O)N4CCN(C(=O)c5ccco5)CC4)n(C)c3nc12,9,i,-17,-9,4,1,4,8,
CCN(CC)S(=O)(=O)c1ccc2oc(Nc3ccc(OC)cc3OC)nc2c1,x,i,-12,0,3,3,-5,2,

# The closing 7 records of the section above come first, to join the parts:
SMILES,CSC inhib,Rce1 inhib,Yeast UUG start,HIV Env fusion,MT1-MMP act inh,MT1-MMP act inh RFP,PABP FP inh,eIF4H FP inh,others
COc1ccc(/C=N/Nc2nc(N3CCCC3)nc(N3CCCC3)n2)c(OC)c1OC,-2,i,x,-6,3,2,5,-1,
CN1C(=O)CC(C(=O)O)SC1=Nc1cc(Cl)cc(Cl)c1 (centres undefined),-3,i,-18,-16,4,7,-4,9,
Cc1c(NC(=O)c2cc3c(s2)CCCC3)c(=O)n(-c2ccccc2)n1C,x,i,-5,-1,3,1,2,-2,
CCOC(=O)c1c(C)c(C(=O)Nc2ccc(N(C)C)cc2)c(C)n1CC,48,i,-2,x,-3,-10,0,-2,
CCOC(=O)c1cnc(-n2nc(C)cc2C)nc1NCCc1ccccc1,-16,i,-39,44,4,-9,-18,-7,
Cc1cccn2c(=O)c3cc(C(=O)N4CCN(C(=O)c5ccco5)CC4)n(C)c3nc12,9,i,-17,-9,4,1,4,8,
CCN(CC)S(=O)(=O)c1ccc2oc(Nc3ccc(OC)cc3OC)nc2c1,x,i,-12,0,3,3,-5,2,
CCc1cc(CNC(=O)c2ccc3nc(Cc4ccc(OC)c(OC)c4)oc3c2)on1,-9,i,-9,2,0,-13,x,x,
CCc1ccc(N2C(=O)CN(Cc3cccs3)C2=S)cc1,-15,i,-6,9,-3,-1,56,9,eIF4H FP inh retest=16;PABP FP inh retest=27
Cc1ccsc1/C=N/NC(=O)CO,-4,i,-6,-73,2,3,0,-4,
Cc1cc(NC(=O)Nc2ccc(Cl)c(Cl)c2)no1,24,i,1,8,2,-5,x,x,
Cc1oc(-c2cccc(Cl)c2)nc1CSCC(=O)O,-8,i,-24,10,-2,-1,8,-2,
CC(=O)c1ccc(OC(=O)C(CCS(C)(=O)=O)N2C(=O)c3ccccc3C2=O)cc1 (centres undefined),-1,x,-8,-116,4,3,-4,-4,
CCCn1c(=O)c(C(=O)NNS(=O)(=O)c2ccc(NC(=O)OC)cc2)c(O)c2ccccc21,x,i,-8,3,-2,3,7,-5,
Cc1ccc2cc(CCNC(=O)c3ccc4c(c3)OCO4)c(=O)[nH]c2c1C,-3,i,-7,-4,-1,-6,-14,6,
O=C(O)c1cccc(NS(=O)(=O)c2ccc(NC(=O)c3ccco3)cc2)c1,5,i,-21,3,5,8,-5,5,
O=[N+]([O-])c1cc(C(F)(F)F)cc([N+](=O)[O-])c1NN=C1CCCCC1,-25,i,4,8,-64,3,0,4,
C=CCNC(=O)CN1CCC(c2nc3ccccc3[nH]2)CC1,-17,i,-9,-1,-1,3,7,-10,
COc1ccc(S(=O)(=O)N2CCOCC2)cc1NC(=O)CCNC(=O)c1ccc(Br)cc1,70,i,6,-4,3,0,x,x,
